NPYLR7 agonist: activates Aedes aegypti NPYLR7 receptor; HEK293T NPYLR7/Galpha15, GCaMP6s calcium fluorescence; activation, % at 10 µM; 270,000 compounds, 0.15% hits; in the data active means activation above about 40%;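 further: 0% = vehicle and 100% = reference agonist at the receptor; some compounds past the cut are filed as inactive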
NPYLR7 agonist max-min: second read-out of NPYLR7 agonist, no call of its own (marks repeat the call); activation, %; measured here: Max-Min RFU normalised activation; some inactives read as strong as hits;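 span of the calcium signal over five minutes; 0% = vehicle and 100% = native peptide agonist; compound fluorescence can raise it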
* = called active by the depositor; & = joins results of further samples. Some of the compounds tested (hit frequency here may not be typical).

The line under a structure holds: NPYLR7 agonist | NPYLR7 agonist max-min
COCCOc1nc(-c2cccs2)n(-c2ccc(NC(=O)Nc3ccccc3C)cc2)n1
 : 13 | 27
CC(C)c1nc(CN(C)C(=O)CC2C(=O)N(C)C(=O)N2C)cs1 (centres undefined)
 : -2 | 0
Cc1nc(NC2=NCN(C(C)C)CN2)nc2ccccc12
 : 5 | 1
CCOc1ccc(N)cc1S(=O)(=O)N(C)C
 : 1 | 1
Cc1ccsc1C(=O)N1CCC1(C)C(=O)Nc1cccc2ncccc12 (centres undefined)
 : 7 | 2
Cc1ccccc1CSc1nnc(N)s1
 : 9 | 2
Cc1ccc(C(C2Sc3nc(-c4ccco4)nn3C2=O)N2CCC3(CC2)OCCO3)cc1 (centres undefined)
 : 0 | -1
Cc1cnn(CC2CCN(CC(O)COCC3CCCO3)CC2)c1 (centres undefined)
 : -3 | -10
CC(=O)Oc1cccc(C(=O)N2CCC(c3cn(C)c4ccc(C)cc34)CC2)c1C
 : 5 | 5
COc1ccc(S(=O)(=O)NC(CC(=O)O)c2ccccc2)cc1 (centres undefined)
 : -4 | -6
CCOC(=O)CCc1c(C)nc2ncnn2c1N1CCN(C(=O)c2cccc(Cl)c2)CC1
 : 28 | 16
CC(C)c1nnc(SCC(=O)NC2CCCC2)c2c1cnn2-c1ccccc1
 : -11 | -16
COC(=O)c1ccc2c(c1)C(=O)/C(=C/c1cccc(O)c1)O2
 : -3 | 7
CC(=O)OCC(=O)N1CCC(c2cn(C)c3ccc(C)cc23)CC1
 : 35 | 32
COc1cccc(C(=O)Nc2n[nH]c(-c3ccc(OC)cc3OC)n2)c1
 : 0 | -3
COc1cc(C#N)ccc1OCc1ccccc1Br
 : -1 | -4
CN(C)Cc1ccccc1-c1ccc2n(c1=O)C[C@H]1C[C@@H]2CN(C(=O)NC2CCCCC2)C1
 : 21 | 19
CCCN1C(=O)C(c2c(CC)[nH]n(-c3cc(C)ccc3C)c2=O)=C(N2CCC(C)CC2)C1=O
 : 6 | 11
O=C(O)C1CN(c2nc(-c3ccccc3)nc3c2CCC3)CCN1 (centres undefined)
 : -1 | -5
Cc1nc(SCC#N)c2c(C)c(C)sc2n1
 : 13 | 15

Not a retest: 5 of the compounds above.
The line under a structure holds: NPYLR7 agonist | NPYLR7 agonist max-min
COc1cc(C#N)ccc1OCc1ccccc1Br
 : -1 | -4
CN(C)Cc1ccccc1-c1ccc2n(c1=O)C[C@H]1C[C@@H]2CN(C(=O)NC2CCCCC2)C1
 : 21 | 19
CCCN1C(=O)C(c2c(CC)[nH]n(-c3cc(C)ccc3C)c2=O)=C(N2CCC(C)CC2)C1=O
 : 6 | 11
O=C(O)C1CN(c2nc(-c3ccccc3)nc3c2CCC3)CCN1 (centres undefined)
 : -1 | -5
Cc1nc(SCC#N)c2c(C)c(C)sc2n1
 : 13 | 15

Next part
The line under a structure holds: NPYLR7 agonist | NPYLR7 agonist max-min
CCC(c1cccnc1)N(C)Cc1ccccn1 (centres undefined)
 : 5 | 4
COc1ccc(CC2CCN(C(=O)c3ccc(Cl)c(Cl)c3)CC2)cc1
 : 22 | 14
Cc1ccc(NC(=O)N(C(C)CS(C)(=O)=O)C2CC2)cc1 (centres undefined)
 : 2 | 0
C[C@@H]1CN(C(=O)CC2(CC(=O)O)CCCC2)C[C@H](C)O1
 : -21 | -25
O=C(COc1ccc(Cl)cc1)Nc1nccs1
 : -3 | -8
CCCCc1ccc(N2CCCn3c2nc2c3c(=O)n(CCOCC)c(=O)n2C)cc1
 : 5 | 1
CCCCOc1ccc(C(=O)Nc2ccc(N3CCC(Cc4ccccc4)CC3)c(C(=O)NCc3ccc(F)cc3)c2)cc1
 : 15 | 19
CC(=O)c1ccc(C(=O)N2CCCC(C(=O)c3ccc(Cl)cc3C)C2)cc1 (centres undefined)
 : 15 | 4
COc1ccc(C(C2Sc3nc(C)nn3C2=O)N2CCC(C(N)=O)CC2)cc1OC (centres undefined)
 : 3 | 0
Cc1cc(C(=O)Nc2ccc(N3CC(C)OC(C)C3)nc2)c(C)n1C1CC1 (centres undefined)
 : -3 | -2
CS(=O)(=O)Oc1ccc(Cl)cc1CN(Cc1ccco1)C(=O)c1cccc(F)c1
 : 10 | 13
CCc1ncc(CN(C)Cn2ncn(C)c2=S)s1
 : 6 | 5
CN(CCCNC(=O)c1cc2cccc(F)c2o1)C(=O)C1CCC1
 : 4 | 2
Cc1ccc(O)c(-c2n[nH]c3c2C(c2ccc(F)cc2)N(C)C3=O)c1 (centres undefined)
 : 8 | 4
C[C@H](C(=O)NCc1nccs1)N1Cc2ccc(Nc3ncccn3)nc2C1=O
 : 2 | -1
Cn1ccc(C(=O)N2CCCCC2C(=O)NC2CCCC2)cc1=O (centres undefined)
 : 6 | 2
C=CC[C@H]1CC(C)=C[C@H](CC=C)N1C(=O)c1ccc2[nH]c(=O)c(=O)[nH]c2c1
 : 4 | -3
COCC(=O)N(Cc1ccc(OS(=O)(=O)c2ccc(OC)cc2)cc1)C1CC1
 : -4 | 9
CCCCCN=C(NC(=O)c1ccc(OC)cc1)OCC
 : -3 | -2
O=C(Nc1ccc(N2CCOCC2)c2nonc12)C1CCCO1 (centres undefined)
 : -3 | -3

Shown as a markdown table: entries from further up
| mol | NPYLR7 agonist | NPYLR7 agonist max-min |
| --- | --- | --- |
| Cc1cnn(CC2CCN(CC(O)COCC3CCCO3)CC2)c1 (centres undefined) | -3 | -10 |
| CCOc1ccc(N)cc1S(=O)(=O)N(C)C | 1 | 1 |
| CCc1ncc(CN(C)Cn2ncn(C)c2=S)s1 | 6 | 5 |
| Cc1nc(SCC#N)c2c(C)c(C)sc2n1 | 13 | 15 |

More compounds follow.
The line under a structure holds: NPYLR7 agonist | NPYLR7 agonist max-min
COc1ccc(-c2ccc(CCC(=O)NCc3c(F)cccc3Cl)n2-c2ccc(SC)cc2)cc1
 : 1 | -1
CCCc1cc(=O)[nH]c(-n2nc(C)cc2NC(=O)/C=C/c2ccc3c(c2)OCO3)n1
 : 16 | 9
COc1ccc(N2CCN(C(=O)C3CC=CCC3C(=O)NCc3ccco3)CC2)cc1 (centres undefined)
 : -7 | -15
NC(=O)c1cnc2n1CCN(C(=O)c1nc(-c3ccccc3)cs1)C2
 : 3 | -1
CC(C)COCC(N)c1ccco1 (centres undefined)
 : 17 | 9
CCc1noc(C)c1C(=O)NC1(c2ccc(Br)cc2)CC1
 : 7 | 4
COc1ccc(CCC(=O)NCC2CCCOC2C(C)C)c(OC)c1OC (centres undefined)
 : 12 | 8
Cc1nn(C)c(C)c1C1CCCN1C(=O)c1cc(F)cc2[nH]cnc12 (centres undefined)
 : 1 | -1
COc1ccc(-c2cc(C(=O)N3CCC(C(N)=O)CC3)n(-c3cccc([N+](=O)[O-])c3)n2)cc1
 : -6 | -5
CCc1nc(-c2c(-c3ccccc3)ncn2CCOc2nonc2C)c(C)[nH]1
 : 11 | 3
O=C(c1ccc(S(=O)(=O)N2CCCCCC2)cc1)N1CCc2ccccc21
 : 0 | -2
NC12C[C@@H]3CC1(O)C[C@H](C2)c1ccccc13
 : 8 | 4
CCOC(=O)C1CCN(C(=O)c2nn(-c3ccc(C)c(Cl)c3)c(=O)n(Cc3ccc(C(F)(F)F)cc3)c2=O)CC1
 : 15 | 14
CN(c1ccccc1)c1ccc(/C=C2/SC(=S)N(c3ccccc3)C2=O)cc1
 : -1 | -7
CC(CCc1ccccc1F)C(=O)NS(=O)(=O)CC1CC1 (centres undefined)
 : 5 | 2
CCCCc1ccc(C(=O)N2CCn3nc(C(=O)N4CCOCC4)cc3C2)nc1
 : -4 | -9
Cn1c(=O)c(C(=O)NCc2cccnc2)c(O)c2ccccc21
 : 3 | 0
COCc1nc2nc(C)c(CCC(=O)O)c(=O)n2[nH]1
 : -20 | -22
Cc1c(-c2ccc(F)cc2)[nH]c2ccc(CNC(=O)[C@H](C)n3cnnn3)cc12
 : 6 | 5
CC1Cc2ccccc2N1C(=N)N=C(N)N (centres undefined)
 : 10 | 14

Among those listed so far, these have bromine:
The line under a structure holds: NPYLR7 agonist | NPYLR7 agonist max-min
COc1cc(C#N)ccc1OCc1ccccc1Br
 : -1 | -4
CCc1noc(C)c1C(=O)NC1(c2ccc(Br)cc2)CC1
 : 7 | 4

The listing continues:
The line under a structure holds: NPYLR7 agonist | NPYLR7 agonist max-min
CCOC(=O)N1CCN(C(=O)c2cc(-c3cccc(OC)c3)n3nc(-c4ccccc4)cc3n2)CC1
 : 9 | 6
Cc1ccc2nc(-c3ccc([N+](=O)[O-])cc3)oc(=O)c2c1
 : 2 | 11
CCNc1ccnc(N2CCCC(CCC(N)=O)C2)n1 (centres undefined)
 : -1 | -3
Clc1ccc(Cn2ncc3c(N4CCCCCC4)ncnc32)c(Cl)c1
 : -3 | -8
O=c1[nH]cnc2nc(-c3ccccc3)c(-c3ccccc3)nc12
 : -2 | -2
CC(C)(C)OC(=O)N1CCC(Oc2ccc(NC(=O)c3cccc(SC(F)F)c3)cc2)C1 (centres undefined)
 : -24 | -31
CC(C)n1cnnc1CN(C)c1nccc(CCC(F)(F)F)n1
 : 1 | -1
CCc1nnc(C(C)S(=O)(=O)C2CCCc3ccccc32)o1 (centres undefined)
 : 3 | 2
c1ccc(Oc2cccc(C3c4cccn4CCCN3Cc3ccncc3)c2)cc1 (centres undefined)
 : 8 | 9
O=C(c1ccc2cccnc2c1)N1CCOC(c2ccc(Cl)c(Cl)c2)C1 (centres undefined)
 : 5 | -1
Cc1cc(C(C)NC(=O)C2CC(=O)N(CC(F)(F)F)C2)c(C)s1 (centres undefined)
 : 8 | 4
O=C(NCc1ccco1)Nc1ccc(Br)cc1Br
 : 10 | 5
COc1ccc(-c2cnc3ncnn3c2N2CCN(C(=O)c3c(-c4c(Cl)cccc4Cl)noc3C)CC2)cc1
 : -7 | -10
CCN1CCN(c2nc(Nc3ccc(C)c(Cl)c3)c3nccnc3n2)CC1
 : 1 | 6
Cn1cc(CN(Cc2ccncc2)CC2CCCO2)c(-c2cccc(Cl)c2)n1 (centres undefined)
 : 3&-5 | 0&-8
COc1ccc(/C=C2\C=C(c3ccccc3)N(c3ccc(Cl)cc3)C2=O)cc1
 : -2 | 5
CCOc1ccc(C2c3[nH]c4ccccc4c3CCN2C(=O)c2snnc2C)cc1 (centres undefined)
 : 7 | -10
CC(=O)NC(C)c1nc2ccccc2n1CC(C)C (centres undefined)
 : -5 | -7
FC(F)(F)c1ccccc1-n1ccnc1
 : -7&2 | -8&13
C1=C/COCc2cc(ccc2OCCN2CCCC2)Nc2nccc(n2)-c2cccc(c2)COC/1
 : 1 | -4
CCCc1ncncc1C(=O)N1CCc2onc(-c3ccc4c(c3)OCO4)c2C1
 : 1 | 0
O=C(C1COc2ccccc2C1)N(Cc1ccco1)C1CC1 (centres undefined)
 : -1 | -1
O=C(c1ccc2c(c1)OCO2)N(Cc1c(-c2ccccc2)noc1N1CCCCC1)C1CC1
 : 15 | 15
COc1ccc(CN2CCN(Cc3ccc(-n4cccn4)cc3)CC2CCO)c(F)c1 (centres undefined)
 : -8 | -12
CC(Nc1ccc(OCc2cccnc2)c(Cl)c1)C(=O)NC(N)=O (centres undefined)
 : -9 | -7
C[C@H](NC(=O)CN1Cc2ccc(-c3ccc(C#N)cc3)nc2C1=O)c1ccc(F)cc1
 : 13 | 25
Cc1cc(N2CCCN(CC3CCOC3)CC2)ccn1 (centres undefined)
 : 2 | 1
CCSC1=C(C#N)C(=O)NC(C(C)C)S1 (centres undefined)
 : 4 | -1
COCCN(CC(=O)Nc1cc(-c2ccccc2)nn1-c1ccc(F)cc1)C(=O)Nc1ccccc1C(F)(F)F
 : 0 | 15
Cc1nc(C)n(C)c(=O)c1-c1ccccc1
 : -3 | -5
O=c1c2nnn(-c3ccc(F)cc3)c2ncn1C/C=C/c1ccccc1
 : 8 | 11
Cc1csc(NC(=O)CSc2nc(=O)n(Cc3ccncc3)c3c2CCC3)n1
 : 1 | -1
CCCn1c(=O)c2sc(N3CCCCC3)nc2n(CC(=O)Nc2ccc(F)cc2F)c1=O
 : 6 | 7
Cn1c(C(=O)NCCN2CCOCC2)cc2c(=O)n3ccccc3nc21
 : 12 | 8
O=C(Nc1ccc(Oc2ccccc2Cl)cc1)N1CCOC2CCCCC21 (centres undefined)
 : 1 | 0
NC(=O)Cn1nc(-c2cccc3ccccc23)ccc1=O
 : 7 | 1
CC1(C)ON=C(c2ccc3c(c2)OCO3)N(Cc2ccc(F)cc2)C1=O
 : 3 | 2
COc1cn(-c2ccccc2)nc1C(=O)OC1CCCCNC1=O (centres undefined)
 : 4 | -1
O=S(=O)(c1ccc(Cl)s1)N1CCN(c2ccc(F)cc2)CC1
 : -2 | -3
CC(C)(C)C(C(=O)N1CCC(C(=O)NCC#N)(c2ccccc2)CC1)n1cccc1 (centres undefined)
 : 7 | 1
CCN(Cc1noc(CC(C)C)n1)C(=O)c1nn(C)c2ccccc12
 : 13 | 8
Cc1ccsc1[C@@H]1CCN(C(=O)c2cc3cccnc3nc2C)C[C@H]1O
 : 4 | -1
CCc1nc(NCCNC(=O)c2ccc(C(C)(C)C)cc2)c2ccc(Cl)cc2n1
 : 15 | 16
CCOCCCN(c1ccc(C#N)cc1)S(C)(=O)=O
 : 0 | 0
CS(=O)(=O)c1cccc(Oc2cc(Cl)nc(N)n2)c1
 : 0 | 1
O=C1C2C3C=CC(C3)C2C(=O)N1c1cccc([N+](=O)[O-])c1 (centres undefined)
 : 0 | -5
O=C(Nc1ccccc1)c1cc(C2CCCCN2C(=O)OCCF)on1 (centres undefined)
 : -2 | -3
O=[N+]([O-])c1cnn(-c2nc(-c3ccccc3)cc(C(F)(F)F)n2)c1
 : 4 | -1
O=C(C1CC1c1cccc(Br)c1)N1CCc2c(CN3CCCC3)cccc21 (centres undefined)
 : 6 | 5
CCOC(=O)N1CCN(C(=O)CSc2ncc(CO)n2Cc2ccc(C)cc2)CC1
 : -2 | -2
